Screening results as filed in PubChem BioAssay.
DUX4 txn inh – DUX4-mediated transcription inhibition; 293T-iDUX4 ZSCAN4-Gaussia luciferase reporter, 24 h; stronger effect = lower value; activity change, negative = inhibition, % (concentration not given with the values); 37,000 tested, 0.8% active; AID 1224904;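 active = -10% or lower and over 25 points stronger than a control reporter; inconclusive = -10% or lower with a smaller gap; inactive = above -10%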;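 also: 0% = median of neutral control wells and -100% = median of positive control wells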
DUX4 txn inh difference – also measured in DUX4 txn inh; calls as there; Gaussia minus Italica difference, %; measured here: selective DUX4 reporter inhibition;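 worked out from the two reporters; negative = selective loss of the DUX4 reporter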
DUX4 txn inh control – further read-out of DUX4 txn inh, marked with its call; activity change, negative = inhibition, %; measured here: Italica tet-on control reporter;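 0 = neutral control and -100 = positive control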
The depositor's hits bear a star; ? = inconclusive; · = not tested or not shown; & = joins results of further samples.

| entry | Structure | DUX4 txn inh control | DUX4 txn inh difference | DUX4 txn inh |
| --- | --- | --- | --- | --- |
| 1 | C[C@@H]1CN([C@H](C)CO)C(=O)c2cc(-c3cccnc3)cnc2O[C@@H]1CN(C)C(=O)c1ccccc1F | 2.1 | -6 | -4 |
| 2 | COCCNC(=O)[C@H]1[C@H](CO)[C@H]2Cn3c(ccc(-c4ccccc4F)c3=O)[C@H]2N1C(=O)C1CCCC1 | 1.0 | 5 | 6 |
| 3 | C[C@@H]1CN([C@H](C)CO)S(=O)(=O)c2ccc(-c3cncnc3)cc2O[C@H]1CN(C)C(=O)NC1CCCC1 | 0.1 | -3 | -3 |
| 4 | COCC#Cc1ccc([C@@H]2[C@H]3CN(C(=O)CN(C)C)CCCCN3[C@H]2CO)cc1 | 16 | 1 | 16 |
| 5 | CCC(=O)N1[C@@H]2CN(C(=O)NC(C)C)c3ccccc3[C@@H]2[C@@H]1CO | -4.0 | 3 | -1 |
| 6 | CN(C[C@@H]1[C@H](c2ccccc2)[C@H](CO)N1C(=O)c1ccccc1)C(=O)C1CC1 | 0.2 | -1 | -1 |
| 7 | COc1cccc(NC(=O)Nc2ccc3c(c2)C(=O)N(C)C[C@@H](OC)[C@H](C)CN(CC2CC2)[C@H](C)CO3)c1 | · | · | ? |
| 8 | C[C@@H]1CN([C@H](C)CO)S(=O)(=O)c2ccc(C#CC3CC3)cc2O[C@H]1CN(C)C(=O)c1cccc(F)c1 | 0.3 | -2 | -1 |
| 9 | C[C@@H]1CN([C@H](C)CO)C(=O)CCCn2cc(nn2)CO[C@H]1CN(C)C(=O)c1ccc2ccn(C)c2c1 | 2.2 | -7 | -5 |
| 10 | C[C@@H]1CN([C@@H](C)CO)C(=O)c2c(c3ccccc3n2C)-c2ccccc2CO[C@H]1CN(C)C(=O)c1ccc(F)cc1 | -5.4 | -4 | -9 |
| 11 | COC(=O)C[C@H]1C[C@H]2c3cc(NC(=O)c4ccc5c(c4)OCO5)ccc3O[C@H]2[C@H](CO)O1 | 2.3 | -8 | -6 |
| 12 | CCC(=O)NC[C@H]1[C@H](c2ccc(C3=CCCC3)cc2)[C@H](CO)N1C(C)=O | -1.3 | -2 | -4 |
| 13 | CCCNC(=O)C[C@@H]1CC[C@H]2[C@@H](COC[C@H](O)CN2C(=O)Nc2cccc(Cl)c2)O1 | 4.6 | -2 | 3 |
| 14 | O=C(C[C@H]1CC[C@H]2[C@@H](COC[C@H](O)CN2Cc2ccc(Cl)cc2)O1)Nc1nccs1 | · | · | ? |
| 15 | COc1ccccc1-c1ccccc1[C@@H]1[C@@H](C#N)N(C(=O)C2CCC2)[C@@H]1CO | 1.2 | -1 | 0 |
| 16 | CC(C)NC(=O)N(C)C[C@H]1Oc2ccc(NC(=O)c3ccncc3)cc2C(=O)N([C@@H](C)CO)C[C@@H]1C | 3.4 | -4 | -1 |
| 17 | CCS(=O)(=O)Nc1ccc2c(c1)C(=O)N(C)[C@@H]1CC[C@H](CC(=O)NC3CCCCC3)O[C@@H]1CO2 | -3.1 | 1 | -2 |
| 18 | CCCNC(=O)C[C@@H]1CC[C@@H]2[C@H](COC[C@@H](O)CN2C(=O)c2ccccn2)O1 | 7.1 | 6 | 13 |
| 19 | CO[C@@H]1CC[C@@H]2CCN(C)C(=O)[C@@H](C)[C@H](OC)CN(C)C(=O)c3cc(C#N)ccc3OC[C@@H]1O2 | 0.1 | 0 | 0 |
| 20 | COc1ccc2c3c(n(C)c2c1)[C@@H](CO)N(C(C)=O)CC31CN(C(=O)NC(C)C)C1 | 6.2 | 4 | 10 |
| 21 | CCC(=O)N1[C@@H](CO)[C@@H](c2ccccc2)[C@@H]1CN(CC)C(=O)NC1CCCC1 | -0.6 | -1 | -2 |
| 22 | O=C(CN1CCOCC1)NCC[C@H]1CC[C@@H](NC(=O)Cc2ccccn2)[C@@H](CO)O1 | -0.8 | 6 | 5 |
| 23 | O=C(c1cnccn1)N1CC(=O)N2[C@H](C1)[C@H](c1ccc(/C=C/c3ccccc3)cc1)[C@@H]2CO | -3.9 | -2 | -6 |
| 24 | CNC(=O)C[C@@H]1CC[C@@H]2[C@H](COC[C@@H](O)CN2C(=O)Nc2ccc(Cl)c(Cl)c2)O1 | -0.1 | -4 | -4 |
| 25 | COCC#Cc1ccc([C@@H]2[C@@H](CO)N3CCCCN(Cc4cccnc4)C[C@@H]23)cc1 | 12 | -4 | 8 |

(more compounds)
| entry | Structure | DUX4 txn inh control | DUX4 txn inh difference | DUX4 txn inh |
| --- | --- | --- | --- | --- |
| 26 | O=C(c1ccccc1)N1CC(=O)N2[C@@H](CO)[C@H](c3ccc(-c4ccccc4)cc3)[C@@H]2C1 | -2.3 | 0 | -2 |
| 27 | CCCNC(=O)N1CC2(C1)[C@@H](c1ccccc1)[C@H](CO)N2C(=O)C1CC1 | 3.2 | 4 | 8 |
| 28 | N#C[C@H]1[C@@H](c2ccc(-c3cccnc3)cc2)[C@@H](CO)N1C(=O)C1CC1 | -1.8 | 0 | -2 |
| 29 | C[C@@H]1CN([C@H](C)CO)C(=O)c2cc(NC(=O)Nc3ccc(F)cc3)ccc2O[C@@H](C)CCCCO[C@@H]1CN(C)Cc1ccccc1 | 0.1 | 0 | 0 |
| 30 | O=C(c1ccc2c(c1)OCO2)N1CC[C@H]2[C@H](CO)Nc3ccc(-c4ccc(F)cc4)cc3[C@H]21 | · | · | ? |
| 31 | COc1ccc(S(=O)(=O)N[C@H]2CC[C@@H](CCNC(=O)Cc3ccccn3)O[C@@H]2CO)cc1 | -14 | 6 | -8 |
| 32 | C[C@@H]1CN([C@@H](C)CO)C(=O)Cc2cc(NS(=O)(=O)c3ccccc3)ccc2O[C@H]1CN(C)Cc1ccc(C(=O)O)cc1 | -1.8 | 2 | 0 |
| 33 | O=C(N[C@@H]1C=C[C@@H](CC(=O)N2CCOCC2)O[C@@H]1CO)c1ccccn1 | -1.7 | 3 | 1 |
| 34 | Cn1cnc(S(=O)(=O)N2CC[C@@H]3[C@H]2c2cc(-c4ccc(F)cc4)ccc2N[C@@H]3CO)c1 | 5.8 | 8 | 14 |
| 35 | C[C@H](CO)N1C[C@H](C)[C@H](CN(C)Cc2ccc(C(F)(F)F)cc2)Oc2ccc(NS(C)(=O)=O)cc2CC1=O | 9.3 | -8 | 1 |
| 36 | CCCNC(=O)N1C[C@@H](O)COC[C@H]2O[C@@H](CC(=O)NCc3ccc(Cl)c(Cl)c3)CC[C@@H]21 | -7.9 | 4 | -4 |
| 37 | CO[C@H]1CN(C)C(=O)c2ccc(NC(=O)Nc3ccccc3)cc2OC[C@H](C)N(C(=O)CC2CC2)C[C@@H]1C | 2.2 | -6 | -4 |
| 38 | CC=Cc1ccc2n(c1=O)C[C@H]1[C@H](CO)[C@@H](C(=O)N3CCCCC3)[C@@H]2N1CC1CCCC1 (mixture of isomers) | 7.1 | -11 | -4 |
| 39 | O=C(C1CC1)N1[C@H](CO)[C@@H]2c3ccccc3N(S(=O)(=O)c3ccc(F)cc3)C[C@@H]21 | 1.6 | 0 | 2 |
| 40 | COc1cccc(C#Cc2ccc([C@H]3[C@H](C#N)N(C(=O)C4CCC4)[C@H]3CO)cc2)c1 | -5.7 | 3 | -3 |
| 41 | CCCNC(=O)N1CC2(CCN(CC3CCOCC3)CC2)c2c(n(C)c3cc(OC)ccc23)[C@@H]1CO | 10 | -5 | 5 |
| 42 | COc1cccc(C(=O)N2C[C@H]3[C@@H](c4ccccc42)[C@@H](CO)N3Cc2ccccc2Cl)c1 | 5.3 | 0 | 6 |
| 43 | CCCN1[C@@H]2c3cccc(=O)n3C[C@H]1[C@H](CO)[C@H]2C(=O)N[C@@H](C)c1ccccc1 | 2.9 | -5 | -2 |
| 44 | CO[C@H](CN(C)S(=O)(=O)c1ccc(C)cc1)[C@H](C)CN(C(=O)Nc1ccccc1F)[C@@H](C)CO | -0.6 | -3 | -4 |
| 45 | CCS(=O)(=O)N1CCC2(CC1)CN(S(=O)(=O)c1ccc(C)cc1)[C@@H](CO)c1[nH]c3cc(OC)ccc3c12 | · | · | ? |
| 46 | COc1ccc(C#Cc2ccc([C@H]3[C@H]4CN(C(=O)c5ccncc5)CC(=O)N4[C@H]3CO)cc2)cc1 | -9.4 | 3 | -6 |
| 47 | COC(=O)C[C@H]1CC[C@@H]2[C@H](COC[C@@H](O)CN2S(=O)(=O)c2cn(C)cn2)O1 | 0.3 | 2 | 2 |
| 48 | C[C@H](CO)N1C[C@H](C)[C@H](CN(C)Cc2ccc(C(F)(F)F)cc2)OCCCC[C@H](C)Oc2ccc(NC(=O)CCCN(C)C)cc2C1=O | -0.4 | 1 | 1 |
| 49 | COc1cccc(S(=O)(=O)N2CCCCN3[C@H](C2)[C@H](c2ccc(-c4cccnc4)cc2)[C@@H]3CO)c1 | -0.9* | -34* | -35* |
| 50 | CCCNC(=O)[C@@H]1[C@@H](CO)[C@@H]2Cn3c(ccc(-c4ccccc4OC)c3=O)[C@H]1N2C(=O)NCCC | 4.6 | -2 | 2 |

More compounds follow:
| entry | Structure | DUX4 txn inh control | DUX4 txn inh difference | DUX4 txn inh |
| --- | --- | --- | --- | --- |
| 51 | COCCN(C[C@@H]1N[C@@H](CO)[C@H]1c1ccc(-c2ccc(F)cc2)cc1)C(C)=O | 0.2 | 3 | 3 |
| 52 | CN(C)CC(=O)Nc1ccc2c(c1)[C@@H]1C[C@H](CC(=O)NCCN3CCCCC3)O[C@H](CO)[C@@H]1O2 | -0.6 | 10 | 10 |
| 53 | C[C@@H]1CN([C@@H](C)CO)S(=O)(=O)c2ccc(C#Cc3ccccc3F)cc2O[C@H]1CN(C)C(=O)c1ccc2c(c1)OCO2 | 5.2 | -2 | 4 |
| 54 | N#C[C@@H]1[C@@H](c2ccc(C3=CCCCC3)cc2)[C@@H](CO)N1C(=O)NC1CCCC1 | -0.7 | -1 | -2 |
| 55 | CC(C)OC(=O)N(C)C[C@H]1OCc2cn(nn2)CCCC(=O)N([C@@H](C)CO)C[C@@H]1C | 2.4 | 1 | 3 |
| 56 | C[C@@H]1CN([C@H](C)CO)S(=O)(=O)c2ccc(C3=CCCCC3)cc2O[C@H]1CN(C)C(=O)Cc1cccnc1 | 2.8 | -7 | -4 |
| 57 | C/C=C/c1ccccc1[C@@H]1[C@@H](CO)N(C(C)=O)[C@H]1C#N | 7.8 | 9 | 17 |
| 58 | O=C(c1cccnc1)N1C[C@H]2[C@@H](c3ccccc31)[C@H](CO)N2Cc1ccc2c(c1)OCO2 | -0.9 | -3 | -4 |
| 59 | Cc1cccc(-c2ccc(C3[C@H]4CNC[C@@H]3N4C(=O)Nc3ccccc3Cl)cc2)c1 (some centres not stated) | 19&4.1 | -12&6 | 7&10 |
| 60 | C[C@H]1CN([C@@H](C)CO)C(=O)c2c(c3ccccc3n2C)-c2ccccc2CO[C@@H]1CN(C)Cc1ccc(Cl)c(Cl)c1 | -21* | -28* | -49* |
| 61 | CS(=O)(=O)Nc1ccc2c(c1)[C@@H]1C[C@H](CC(=O)NCc3cc(F)ccc3F)O[C@H](CO)[C@@H]1O2 | 0.9 | -3 | -2 |
| 62 | CCNC(=O)C[C@@H]1CC[C@H]2[C@@H](COC[C@H](O)CN2C(=O)C2CCOCC2)O1 | 0.9 | 11 | 12 |
| 63 | C[C@H](CO)N1C[C@H](C)[C@@H](CN(C)C(=O)Cc2ccccn2)Oc2cc(-c3ccc(C(=O)N(C)C)cc3)ccc2S1(=O)=O | 2.7 | -4 | -1 |
| 64 | CCCNC(=O)N1CC2(C1)[C@H](c1ccccc1)[C@@H](CO)N2Cc1ccccn1 | -2.8 | 2 | 0 |
| 65 | COc1ccc(S(=O)(=O)N2CC[C@@H]3[C@H](CO)N(C)c4ccc(-c5ccccc5F)cc4[C@@H]32)cc1 | -5.4 | -3 | -8 |
| 66 | CN1[C@@H]2c3ccc(-c4ccncc4)c(=O)n3C[C@@H]2[C@@H](CO)[C@@H]1C(=O)NC1Cc2ccccc2C1 | -1.7 | -4 | -6 |
| 67 | COCCNC(=O)C[C@H]1C[C@H]2c3cc(NC(=O)Cc4ccncc4)ccc3O[C@H]2[C@H](CO)O1 | 1.5 | 2 | 4 |
| 68 | C[C@H](CO)N1C[C@H](C)[C@H](CN(C)C(=O)c2ccncc2)OCc2ccccc2-c2ccccc2C1=O | 7.4 | 1 | 8 |
| 69 | O=C(c1ccc2c(c1)OCO2)N1C[C@H]2[C@@H](c3ccccc31)[C@@H](CO)N2Cc1ccccc1Cl | -1.9 | 0 | -2 |
| 70 | C[C@@H]1CN([C@@H](C)CO)C(=O)c2c(c3ccccc3n2C)-c2ccccc2CO[C@H]1CN(C)C(=O)Nc1ccccc1C(F)(F)F | -18 | 14 | -4 |
| 71 | C[C@@H]1CN([C@H](C)CO)C(=O)CCCn2cc(nn2)CO[C@@H]1CN(C)Cc1ccc(C(=O)Nc2ccccc2N)cc1 | · | · | ? |
| 72 | CN1CCN(C(=O)C[C@@H]2CC[C@@H]3[C@H](COC[C@H](O)CN3C(=O)C3CCCC3)O2)CC1 | 4.7 | 4 | 9 |
| 73 | CC(C)[C@H]1C(=O)N[C@H](c2ccccc2)CC=CC[C@@H](C)Oc2ccccc2C(=O)N1C (mixture of isomers) | 3.6 | -6 | -3 |
| 74 | C[C@H](CO)N1C[C@H](C)[C@H](CN(C)C(=O)NC2CCCCC2)Oc2ccc(N(C)C)cc2CC1=O | -1.3 | -1 | -2 |
| 75 | C[C@@H]1CN([C@@H](C)CO)S(=O)(=O)c2ccc(-c3ccc(C#N)cc3)cc2O[C@H]1CN(C)C(=O)C1CC1 | -5.4 | 0 | -5 |
| 76 | COc1ccc(C#Cc2ccc([C@H]3[C@H](CO)N4C(=O)CN(C(=O)NC(C)C)C[C@@H]34)cc2)cc1 | 3.9 | -5 | -1 |
| 77 | C[C@@H]1CN([C@H](C)CO)C(=O)c2cc(/C=C/c3ccccc3)cnc2O[C@H]1CN(C)C(=O)C1CCOCC1 | 3.4 | 0 | 4 |
| 78 | O=C(c1cccc(F)c1)N1CC(=O)N2[C@@H](CO)[C@H](c3ccc(C4=CCCCC4)cc3)[C@@H]2C1 | -1.2 | 0 | -1 |

Some of the compounds tested; the hit share may differ from the screen's.
